Assay outcomes: PubChem BioAssay, several laboratories
Arbovirus anti: blocks arbovirus infection | arbovirus infection cell-based antiviral screen | inhibition, % at 10 µM | 200,000 compounds, 0.37% hits;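 active = inhibition from about 30%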;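 also: bluetongue infection of BSR cells; cell survival read as ATP light after 72 h; 0% = infected wells without compound and 100% = uninfected wells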
Mtb bLac sens: beta-lactam sensitization of Mtb H37Rv; 330,000 compounds, 0.27% hits; inhibition, % at 25 µM; M. tuberculosis H37Rv growth with meropenem, percent inhibition; hits of this screen are not shown here;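 active = about 74% or more and at least 40 points above the plate without the antibiotic, then above 30% in a dose series; inconclusive = first-round hits that could not be retested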;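 also: growth measured after seven days incubation then overnight dye step; 0% = bacteria only wells and 100% = bacteria with antibiotic; twin plates without the antibiotic show which effects depend on it; some results filed as inactive read as strong as hits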
YopH inh: blocks Yersinia enterocolitica YopH tyrosine phosphatase. fluorescence Ex485/Em525. 140,000 compounds, 0.16% hits. inhibition, %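 (about 10 µM by stock and volumes)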;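 active = inhibition of 50% or more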;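 also: controls were vehicle for no effect and minimum signal wells for full effect; inactives centre near -20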
Mtb growth: M. tuberculosis H37Rv growth inhibitors, H37Rv strain (AID 1626); 220,000 compounds, 0.95% hits; M. tuberculosis H37Rv growth inhibition; higher % means a stronger effect; inhibition, % at 10 µM; hits with a dose series show IC50 in µM;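 active = confirmed in a dose series; inconclusive = inhibition above 80% but not taken into the dose series; inactive = below 80% or under 30% at every dose of the series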;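 also: bacteria incubated seven days before Alamar blue readout; 0% = bacteria only wells and 100% = bacteria with antibiotic wells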
RecA splice inh: blocks M. tuberculosis RecA intein splicing. cell-free RecA intein splicing, fluorescence. inhibition, %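 (about 9 µM by stock and volumes)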. 290,000 compounds, 0.75% hits. AID 2221; in the data active = inhibition above about 30%; inconclusive = no clear call, values can overlap the other calls;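 also: 0% = vehicle wells and 100% = reference inhibitor control wells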
Target sequence (P9WHJ3 whole entry, looked up, canonical isoform): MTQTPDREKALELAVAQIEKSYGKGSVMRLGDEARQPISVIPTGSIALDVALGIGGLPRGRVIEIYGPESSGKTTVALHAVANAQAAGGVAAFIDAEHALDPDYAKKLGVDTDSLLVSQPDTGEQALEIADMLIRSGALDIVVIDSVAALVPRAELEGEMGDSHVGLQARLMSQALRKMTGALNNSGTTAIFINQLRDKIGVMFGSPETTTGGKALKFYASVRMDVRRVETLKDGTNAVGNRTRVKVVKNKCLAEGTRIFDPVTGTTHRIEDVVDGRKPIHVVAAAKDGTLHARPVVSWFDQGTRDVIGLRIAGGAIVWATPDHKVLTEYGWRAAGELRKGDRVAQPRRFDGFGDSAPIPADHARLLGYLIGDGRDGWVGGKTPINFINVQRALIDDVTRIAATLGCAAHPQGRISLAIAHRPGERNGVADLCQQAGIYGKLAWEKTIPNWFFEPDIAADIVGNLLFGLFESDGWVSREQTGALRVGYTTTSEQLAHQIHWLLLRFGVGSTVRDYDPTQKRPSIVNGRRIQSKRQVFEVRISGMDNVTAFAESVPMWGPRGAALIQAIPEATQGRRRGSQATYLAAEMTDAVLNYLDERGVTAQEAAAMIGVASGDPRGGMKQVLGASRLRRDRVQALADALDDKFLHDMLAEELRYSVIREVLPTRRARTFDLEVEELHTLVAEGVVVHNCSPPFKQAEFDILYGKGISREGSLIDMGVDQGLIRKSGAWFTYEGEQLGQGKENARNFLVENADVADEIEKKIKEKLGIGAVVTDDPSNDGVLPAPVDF
Arbovirus anti repeat: further read-out of Arbovirus anti, marked with its call; inhibition, %; measured here: 10K subset replicate screen; many hits read low in the repeat;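 first of two repeat runs on a subset; 0% = infected and 100% = uninfected wells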
* marks the source's active call; other numbers are inactive results; ? = inconclusive; nt = not tested or not shown. Not all compounds are listed; the hit share may differ from the screen's.

SMILES	Arbovirus anti	Mtb bLac sens	YopH inh	Mtb growth	RecA splice inh	others
COc1cccc(C(=O)C2CCCN(Cc3ccc(OC)c(Cn4cncn4)c3)C2)c1 (stereo not given)	nt	-7	nt	-2%	-2.6
CCOc1ccc(-c2cn[nH]c2N)cc1	5	-9	-6	3%	4.9
COc1ccc(NC(=O)CN2CCN(S(=O)(=O)N3CCCCCC3)CC2)cc1	nt	-4	nt	nt	-0.8
COc1ccc(NC(=O)CNC(=O)N2CC(=O)Nc3ccccc32)cc1OC	nt	-3	nt	nt	5.4
O=C(CCN1CCN(c2ccccc2)CC1)NNC(=S)Nc1ccccc1Cl	2	3	nt	-1%	0.9
CC#CP(=O)(OC)C(O)(CF)c1ccccc1 (stereo not given)	5	-5	-25	0%	-0.8
COc1ccc(Cc2nnc(NC(=O)Nc3ccccc3F)s2)cc1	nt	-2	nt	nt	-0.9
CCOCCc1c(O)nc(SCC)[nH]c1=O	nt	3	nt	0%	-3.1
CC(C)CCOc1ccc(C(CC(N)=O)C(=O)O)cc1 (stereo not given)	2	-6	3	-12%	-7.0
CCOc1ccc(CNC(=O)C2CCN(c3nn4c(=O)cc(C)nc4s3)CC2)cc1	nt	8	nt	nt	0.2
C/C(=N/NC(=O)CNC(=O)C1COc2ccccc2O1)c1ccc([N+](=O)[O-])cc1 (stereo not given)	nt	-2	nt	nt	-3.1
CC(C)C(CCNC(=O)CC(Cc1ccccc1)c1ccco1)c1ccco1 (stereo not given)	-10	-2	-10	-2%	18
COCCN(CC(=O)NC1CCCCC1)C(=O)/C=C/C(=O)c1ccc(OC)cc1O	0	nt	nt	-4%	2.7
COc1ccc(C=NCC2OCCc3ccccc32)cc1OC (stereo not given)	1	-4	-25	-8%	nt
COc1cccc(NC(=O)N2CCCC2C(=O)NC2CCCC2)c1 (stereo not given)	nt	-1	nt	nt	-3.1
CC1(NC(=S)N(CCO)CCO)CCS(=O)(=O)C1 (stereo not given)	-4	5	-35	-12%	-2.6
CCc1nn(CC(=O)N2CCN(c3cc(C)ccc3C)CC2)c(=O)c2cc3occc3n12	nt	-4	nt	nt	4.0
Cc1ccc(Cl)cc1N(CC(=O)NCc1ccc2c(c1)OCO2)S(C)(=O)=O	-6	0	nt	8%	2.0
CCOc1ccc2[nH]c3c(NCCc4ccc(OC)c(OC)c4)ncnc3c2c1	nt	7	nt	19%	4.6
CN=C1S/C(=C\c2ccc(O)c(OC)c2)C(=O)N1C	nt	-4	nt	nt	-4.4

Arranged by number of heavy atoms (smallest number first): some entries from above.
SMILES	Arbovirus anti	Mtb bLac sens	YopH inh	Mtb growth	RecA splice inh	others
COc1ccc(C=NCC2OCCc3ccccc32)cc1OC (stereo not given)	1	-4	-25	-8%	nt
CC(C)C(CCNC(=O)CC(Cc1ccccc1)c1ccco1)c1ccco1 (stereo not given)	-10	-2	-10	-2%	18
COCCN(CC(=O)NC1CCCCC1)C(=O)/C=C/C(=O)c1ccc(OC)cc1O	0	nt	nt	-4%	2.7

Following part
SMILES	Arbovirus anti	Mtb bLac sens	YopH inh	Mtb growth	RecA splice inh	others
CC(=O)N1C(=O)N(C(C)=O)C2C1N(C)C(=O)N2C(C)=O (stereo not given)	-3	1	nt	0%	-1.6
COc1cccc(Oc2cnc(N)nc2-c2ccc(OC)cc2O)c1	-20	0	-8	1%	0.1
O=C(/C=C/c1ccc(F)cc1)NCC1(c2ccccc2)CCOCC1	6	2	-10	1%	nt
CCOC(=O)c1cc2occc2n1CC(=O)N1CCOCC1	9	11	-28	-1%	-2.3
COc1ccc(S(=O)(=O)N2CCCOC2CNC(=O)C(=O)NCc2cccnc2)cc1 (stereo not given)	nt	-2	nt	nt	0.5
CC1(C)CC(=O)C2=C(C1)N=C1c3ccccc3C(=O)C1C2c1ccc(Cl)cc1 (stereo not given)	-25	99	-42	-7%	14
Cc1ccc(/C(N)=N/OC(=O)CSc2ccccc2)cc1	-2	1	nt	3%	7.8
CCN(CC)C(=O)COc1ccc(CC(=O)O)cc1OC	5	-6	-4	1%	-0.3
COc1cc(C(=O)Nc2cccc(S(=O)(=O)N3CCCC3)c2)cc(OC)c1C	nt	-7	nt	0%	8.5
O=C(Nc1cccc(S(=O)(=O)N2CCCCC2)c1)c1ccccn1	1	-1	nt	-2%	0.4
NC(=O)COC(=O)C1c2ccccc2Oc2ccccc21	nt	8	nt	nt	2.1
Cc1cc(C)cc(OCc2nc3ncc(Br)cc3[nH]2)c1	nt	-3	-25	-8%	0.7
CCN(CC)C(=O)Oc1cc(=O)n2c3c(cccc13)CCC2	-4	-2	-26	1%	-0.3
C=CCOC(=O)C1=C[C@@H](c2csc3ccccc23)C[C@@H](OCc2ccc(CO)cc2)O1	0	49	nt	8%	6.2
COc1ccc(/C=N/NC(=O)Cc2csc(Nc3cccc(C(F)(F)F)c3)n2)cc1C	-23	-2	2	6%	7.4
O=C(NC1(C(F)(F)F)N=C2SCCN2C1=O)c1ccccc1 (stereo not given)	8	-10	-15	-3%	1.2
Cc1cccc(C)c1OCC(O)CN(Cc1ccccc1O)C1CCCCC1 (stereo not given)	-12	-13	nt	9%	5.4
CCc1ccc(NC(=O)CSc2nc(=O)n(CCCN(C)C)c3c2CCC3)cc1	nt	-13	nt	nt	5.3
CCOc1cccc(C2C(C(=O)c3ccc(C)o3)=C(O)C(=O)N2Cc2ccncc2)c1 (stereo not given)	3	0	-44	-18%	-0.7
CCc1ccc(CNC(=O)C2CCC(=O)N2C2CCCCC2)cc1 (stereo not given)	0	-1	-12	3%	1.7
COCC(C)NC(=O)C(C)N1c2cccc3cccc(c23)S1(=O)=O (stereo not given)	nt	-2	nt	nt	-0.9
CN1CCCN(S(=O)(=O)c2ccc3c(c2)OCCO3)CC1	-5	4	-7	-9%	0.2
COc1ccccc1Oc1coc2cc(OC(=O)N3CCOCC3)ccc2c1=O	-6	0	-31	-3%	4.2
C=CCOC(=O)C1=C[C@H](c2coc3ccccc3c2=O)C[C@H](OCc2ccc(CO)cc2)O1	2	-2	nt	-8%	3.5
Cc1nc(Cl)sc1C(=O)Nc1cccc(Cl)c1C	-2	2	-22	6%	2.6
O=C(NNC(=O)c1cnccc1C(F)(F)F)c1cccc(Cl)c1	nt	-1	nt	-9%	-0.5
CC(=O)O[C@H]1C[C@@]2(O)[C@@H](OC(=O)c3ccccc3)C3[C@@](C)([C@@H](O)C[C@H]4OC[C@@]34OC(C)=O)[C@@H](O)[C@H](OC(C)=O)C(=C1C)C2(C)C (stereo not given in full)	nt	-3	nt	nt	5.8
CCOCCCNC(=O)C1CCCN1S(=O)(=O)c1ccc(Cl)cc1 (stereo not given)	3	0	-37	-12%	3.5
CC(=O)c1ccc2c(c1)OCCOCCOc1ccc(C(C)=O)cc1OCCOCCO2	nt	87	nt	1%	1.6
Cc1occc1C(=O)N1CCC2(CCCN(Cc3ccc(F)c(F)c3)C2)C1 (stereo not given)	nt	?	nt	nt	0.6
CN(c1ccccc1)c1ccc(/C=C(\CCC(=O)O)c2nc3ccccc3s2)cc1[N+](=O)[O-]	37*	-3	-14	-1%	6.8
O=C1CS/C(=N/N=C/c2cccs2)N1Cc1ccc(F)cc1	nt	9	nt	3%	1.9
Cc1cc(C)nc(NS(=O)(=O)c2ccc(N/C=C\C(=O)c3cccs3)cc2)n1	-1	-4	nt	-6%	-60
CCCn1c(SCC(=O)NC2CCCCC2)nnc1-c1ccccn1	10	-4	nt	6%	0.5
COC(=O)CCSCC(=O)Nc1nnc(C)s1	4	1	-27	-3%	-5.2	Arbovirus anti repeat=1
O=c1ccc2ccccc2n1Cc1cccc(F)c1	nt	2	nt	nt	2.1
CC1CCCCN1S(=O)(=O)c1ccc(C(=O)Nc2nnc(-c3ccco3)o2)cc1 (stereo not given)	nt	90	nt	nt	-0.5
COc1ccc(OC)c(S(=O)(=O)N(C)CC(=O)N2CCN(c3cccc(Cl)c3)CC2)c1	-4	7	-4	4%	1.4
O=C(Nc1ccc(N2CCN(C(=O)c3ccc(Cl)cc3)CC2)cc1)c1cccnc1	6	64	-17	0%	-1.1
CC(CCc1ccccc1)NC(=O)C(=O)NCc1ccccc1 (stereo not given)	-8	-2	-22	5%	-3.1
CC(Cc1ccccc1Sc1ccccc1O)N(C)C (stereo not given)	8	0	-15	-2%	3.6
O=C(Cc1ccc(Cl)c(Cl)c1)OCC(=O)c1ccc[nH]1	-4	89	-20	3%	4.6
CN1CCN(c2ncnc3sc(-c4ccccc4)cc23)CC1	-13	3	nt	1%	-1.9
NC(=O)c1ccc(NC(=O)CCCN2C(=O)c3ccccc3C2=O)cc1	0	5	-20	-5%	-3.5
CN(C)C(=O)C1CCC(=O)N1Cc1cccs1 (stereo not given)	2	1	nt	2%	3.0
Cc1ccc(CCNC(=O)CN(C)S(=O)(=O)c2ccc3c(c2)n(C)c(=O)c(=O)n3C)cc1	nt	-5	nt	-6%	1.0
COc1ccc(C(=O)Nc2ccc(NC(=O)c3cccc(F)c3)cn2)cc1	nt	19	nt	nt	3.5
COc1ccc(C(=O)[C@H]2[C@H]3C(=O)N(c4ccc(C)cc4)C(=O)[C@H]3C3C=CC=NN32)cc1 (stereo not given in full)	nt	-3	nt	9%	1.6
CSc1ccc(S(=O)(=O)NCc2ccc(Cl)cc2)cc1	3	73	-24	8%	-0.5
Cc1ccc(OC(C)C(=O)N(Cc2cccs2)C2CCS(=O)(=O)C2)cc1C (stereo not given)	nt	-4	nt	0%	-3.4
NNc1nc2ccccc2nc1C(F)(F)F	0	-1	nt	2%	-5.9
O=C1NCC(=O)N(Cc2ccccc2)/C1=C/c1ccccc1	-2	4	nt	-4%	-0.6
O=C(CSc1nc2ccccc2o1)N1c2ccccc2Sc2ccc(C(F)(F)F)cc21	-1	9	-18	6%	3.1
O=C(CN1C(=O)S/C(=C\c2ccc(F)cc2)C1=O)Nc1cccc(S(=O)(=O)NCc2ccco2)c1	-10	-5	nt	6%	-2.0
CCc1oc(C(=O)OC)cc1CSC(=N)N	nt	-5	nt	3%	-0.5
CC(C)C(=O)Nc1ccc(C(=O)NCc2cccnc2)cc1	-2	-9	-13	-3%	-1.4
CCc1nnc(NS(=O)(=O)c2ccc(NC(=O)/C=C/C(=O)O)cc2)s1	nt	-2	nt	nt	0.7
CC(NC(=O)c1cc([N+](=O)[O-])cc([N+](=O)[O-])c1)c1ccc(-n2ccnc2)cc1 (stereo not given)	nt	100	nt	nt	-0.9
COc1ccc(C(=O)c2sc(Nc3ccccc3)nc2C)cc1	nt	60	nt	nt	-2.9
O=C(CSc1nc(-c2cccs2)cc(C(F)(F)F)n1)NCCCN1CCOCC1	20	1	nt	-8%	-2.2
Next entries follow:
SMILES	Arbovirus anti	Mtb bLac sens	YopH inh	Mtb growth	RecA splice inh	others
Cc1ccc(Oc2nc3c(c(=O)n(Cc4ccccc4F)c(=O)n3C)n2C)cc1	5	-12	-17	-1%	-0.9
CC(=O)Nc1cccc(C(=O)N2CCC(n3nccc3NC(=O)CC(C)C)CC2)c1	nt	-12	nt	nt	-0.8
Cc1c(C(=O)N(Cc2ccccc2Cl)C2CCS(=O)(=O)C2)oc2ccccc12 (stereo not given)	nt	-1	nt	nt	6.8
CC1C2CC(C(CN(C)C)/C2=N/O)C1(C)C (stereo not given)	-4	-6	-29	2%	0.1
COc1cccc(C(=O)c2c[nH]c(C(=O)NCc3cccs3)c2)c1	-5	-3	-19	-5%	-3.0
COc1ccc(-c2cc(C(=O)N3CCC3)c3ccccc3n2)cc1OC	nt	3	nt	nt	-2.0
O=C(O)c1[nH]c2ccc(Cl)cc2c1CCN1C(=O)c2ccccc2C1=O	nt	-2	nt	-11%	1.1
O=C(Nc1nc2ccsc2c(=O)s1)c1ccco1	nt	-7	nt	-2%	0.8
Cc1nc2ccccn2c1CN(C)C(=O)C1CCC(=O)N(Cc2cccc(F)c2)C1 (stereo not given)	nt	-9	nt	nt	-5.4
Cn1c(Cc2ccc(Cl)cc2)nnc1SCC(=O)NC1CC1	nt	-13	nt	nt	-0.1
C=CC1=C(C(=O)O)N2C(=O)[C@@H](NC(=O)/C(=N/OCC(=O)O)c3csc(N)n3)[C@H]2SC1	nt	-10	nt	-14%	-4.1
CCCCCCCCCCCCN1[C@@H](CC(C)=O)c2cc(C(F)(F)F)ccc2S1(=O)=O	nt	-7	nt	-2%	12

Reprinted at random: three entries already listed
SMILES	Arbovirus anti	Mtb bLac sens	YopH inh	Mtb growth	RecA splice inh	others
CCOc1ccc(-c2cn[nH]c2N)cc1	5	-9	-6	3%	4.9
CC1CCCCN1S(=O)(=O)c1ccc(C(=O)Nc2nnc(-c3ccco3)o2)cc1 (stereo not given)	nt	90	nt	nt	-0.5
CCc1oc(C(=O)OC)cc1CSC(=N)N	nt	-5	nt	3%	-0.5
